# Bioassay records: PubChem BioAssay, several laboratories
# Rad51 HR inh: Rad51 (human) homologous recombination inhibition; 200,000 tested, 0.085% active; inhibition, % at 10 µM; hRad51 DNA strand exchange, fluorescence dequenching; Q06609; AID 1385;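 active = inhibition above 40% at the single screening dose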;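 note: 0% = DMSO control wells and 100% = blanks with heterologous ssDNA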
# Target sequence (Q06609 whole entry, looked up): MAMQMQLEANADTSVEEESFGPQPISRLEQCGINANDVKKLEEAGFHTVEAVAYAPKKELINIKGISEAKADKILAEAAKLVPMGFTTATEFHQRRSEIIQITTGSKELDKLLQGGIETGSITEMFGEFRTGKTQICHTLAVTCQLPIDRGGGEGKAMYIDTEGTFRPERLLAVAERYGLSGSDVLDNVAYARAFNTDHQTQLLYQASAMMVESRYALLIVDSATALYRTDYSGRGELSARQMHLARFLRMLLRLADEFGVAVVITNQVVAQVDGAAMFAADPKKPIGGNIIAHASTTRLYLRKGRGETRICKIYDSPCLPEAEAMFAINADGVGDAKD
#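 Assay system: Human Rad51 nucleoprotein filaments preassembled on unlabelled ssDNA | Reagent: Donor/quencher-labelled 47-bp dsDNA substrate | Doses: One concentration, 10 µM final | Times: 37 °C 15-min filament assembly, 30-min compound preincubation, 15-min exchange | Technique: Fluorescein emission 520 nm, excitation 485 nm | Benchmarks: Plate control and blank wells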
# eIF4E-4G inh: inhibitors of eIF4E and eIF4G interaction in translation initiation. TR-FRET eIF4E-eIF4GI(517-606) binding, 2 h. inhibition, % at 21.7 µM. 220,000 tested, 0.37% active. AID 782;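 note: 0% = full FRET control wells and 100% = background wells lacking eIF4GI fragment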
# thrombin 1536: blocks human thrombin protease activity. alpha-thrombin, Boc-VPR-AMC fluorogenic substrate cleavage. P00734. inhibition, % at 5 µM. AID 1046. 220,000 tested, 0.26% active;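 active = inhibition at or above 40%; inactive = inhibition below 40%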;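 note: 0% = enzyme with no compound and 100% = wells without enzyme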
#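 Material: human alpha-thrombin protein. Incubation: reaction at ambient temperature. Technique: fluorescence of released AMC, ex 355 nm, em 460 nm. Control set: no-compound enzyme wells and no-enzyme blanks. Also added: Boc-VPR-AMC substrate, 15 µM final. Buffer or medium: pH 7.5 Tris (50 mM) with NaCl 150 mM, Tween 20 0.05%.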
# 14-3-3 Bad inh: disrupts binding of bovine 14-3-3 zeta to phospho-Bad peptide. P63103. TR-FRET 14-3-3zeta/Dy647-pBad peptide displacement, 1 h. inhibition, % at 21.7 µM. 220,000 tested, 0.71% active;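 active = inhibition above about 70%, limit read from the data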;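 note: 0% = full 14-3-3 plus peptide FRET controls and 100% = background without 14-3-3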
# EBV gp42 block: EBV gp42 inhibition | Fluorescence polarization binding assay, mP read-out | inhibition, % (tested at 21.74 µM) | 220,000 tested, 0.42% active | AID 1085; in the data active = inhibition above about 50%
# Target sequence (Q1HVG2 whole entry, looked up): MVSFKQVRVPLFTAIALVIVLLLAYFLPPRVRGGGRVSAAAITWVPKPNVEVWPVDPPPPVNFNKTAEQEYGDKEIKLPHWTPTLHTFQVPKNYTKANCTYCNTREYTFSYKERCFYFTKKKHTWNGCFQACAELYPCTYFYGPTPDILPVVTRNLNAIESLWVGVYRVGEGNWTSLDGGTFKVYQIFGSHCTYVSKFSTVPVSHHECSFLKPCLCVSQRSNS
# Furin inh: blocks human furin protease activity; P09958; purified furin, fluorogenic substrate cleavage; inhibition, % at 30 µM; 220,000 tested, 0.061% active; AID 463115; in the data active = inhibition above about 25%; note: inactives centre near -15
# p47phox inh: inhibitors of human p47phox binding; 220,000 tested, 0.53% active; p47phox/p22phox peptide binding, fluorescence polarization, 2 h; AID 1274; P14598; inhibition, % at 24.7 µM;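 note: 0% = p47phox with labelled peptide and 100% = labelled peptide alone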
# Target sequence (P14598 whole entry, looked up): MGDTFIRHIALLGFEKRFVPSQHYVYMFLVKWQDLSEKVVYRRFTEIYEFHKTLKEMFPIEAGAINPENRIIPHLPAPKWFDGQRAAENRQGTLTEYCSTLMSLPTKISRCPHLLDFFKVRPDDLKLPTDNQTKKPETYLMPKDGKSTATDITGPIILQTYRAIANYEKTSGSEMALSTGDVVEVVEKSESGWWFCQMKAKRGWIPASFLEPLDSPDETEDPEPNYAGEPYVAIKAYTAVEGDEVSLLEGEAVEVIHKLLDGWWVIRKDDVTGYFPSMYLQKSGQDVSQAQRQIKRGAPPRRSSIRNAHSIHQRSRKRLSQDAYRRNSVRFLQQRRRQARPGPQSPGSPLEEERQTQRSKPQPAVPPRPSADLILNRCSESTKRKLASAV
# Cl transport mod: modulators of human KCC2 chloride dependent transport | Q9H2X9 | KCC2 cells, thallium flux FluoZin-2 fluorescence | B-score of Tl+ flux slope (higher = more flux/activation; lower = inhibition) at 10 µM | 190,000 tested, 2.2% active | AID 1456;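 active = thallium flux slope and its plate-corrected score both differing from the plate sample mean at a set confidence after two filtering rounds, in either direction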;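 note: slope of fluorescence scaled to starting intensity during 10 to 20 s after thallium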
# * hit, by the source's call; / = not tested or not shown; [ ] = dose if it differs, or a comment.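 Rule for the calls, unless noted: active = inhibition above about 30% (limit read from the data); inactive = the rest.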 Not all compounds are listed; count on the stated rates, not on these rows.
SMILES,Rad51 HR inh,eIF4E-4G inh,thrombin 1536,14-3-3 Bad inh,EBV gp42 block,Furin inh,p47phox inh,Cl transport mod
Cc1c(OCC(=O)OC(C)C)ccc2c3c(c(=O)oc12)CCC3,5.8,-0.3,2.0,1.7,6.1,-14.4[20 µM],4.2,/
O=C(N/C(=C\c1ccc([N+](=O)[O-])cc1)C(=O)N1CCOCC1)c1ccccc1,15.7,2.0,-3.6,-24.5,-2.0,-22.5,-2.6,0.183
COc1ccc(C2=NN(C)C(=NCc3ccccc3)SC2)cc1,3.1,-1.5,-3.8,47.1,3.1,-22.3[20 µM],-10.9,0.581
c1csc(-c2ccn[nH]2)c1,6.9,5.5,-3.6,-3.5,-8.3,-22.4,1.2,-0.65
COc1cccc(C(=O)NN/C(C)=C/C(=O)C(F)(F)C(F)(F)C(F)(F)F)c1,/,1.1,-4.4,-10.1,-8.8,1.5,-12.1,0.775
Brc1ccc(CSc2ccc3nnc(-c4cccnc4)n3n2)cc1,/,1.4,1.0,-0.4,-0.1,-28.2,/,-2.31
COc1cccc(-n2c([S-])c(C(=O)Nc3ccc(S(=O)(=O)N4CCOCC4)cc3)[n+]3cc(C(N)=O)ccc23)c1,/,-45.0,0.4,-15.4,-2.9,-7.8,-73.1,1.05
CCOc1ccc(N/C(N)=N/c2nc(CSc3nnc(C)s3)cc(=O)[nH]2)cc1,-11.3,-1.4,18.6,-2.4,-16.6,-12.5,-4.0,0.482
CC1CCCC(C)N1C(=O)Cn1cc(/C=C2/C(=O)Nc3ccccc32)c2ccccc21 (configuration not stated),1.8,3.0[fluorescence artefact?],1.4,-4.7[fluorescence artefact?],-26.3,-19.0[20 µM],-18.4,/
CCn1c(CNc2ccc(OC)cc2)nnc1SCC(=O)N1CCCc2ccccc21,0.9,12.6,4.9,-8.8,-17.8,-5.1,-8.5,/
CCC(C)(C)NC(=O)CC(c1ccc(OC)cc1)n1cccc1 (configuration not stated),4.1,-1.9,6.1,-1.2,-3.6,-17.3,-4.1,/
Cc1cc(C)nc(N/N=C/C2=C(N3CCOCC3)C(=C/c3ccccc3)/CC2)n1,/,-2.7,-3.3,-0.9[fluorescence artefact?],-9.9,-11.7,-12.2,0.194
CC1(C)[C@@H](O)CC[C@]2(C)[C@H]3C(=O)C=C4[C@@H]5C[C@@](C)(C(=O)O)CC[C@]5(C)CC[C@@]4(C)[C@]3(C)CC[C@@H]12,1.6,5.0,-2.5,-1.8,-7.4,-17.3,-1.2,-2.56
O=C(CNC1CCCC1)Nc1ccc(N2CCCCCC2)cc1,6.2,1.7,-1.8,9.0,4.9,-13.5,-5.4,0.0139
COc1ccc(OCCSc2nnnn2C2CCCCC2)cc1,-6.0,/,0.5,/,-4.0,-17.5,-1.9,-1.84
O=C(COc1ccccc1[N+](=O)[O-])Nc1ccc(Br)cc1,31.4,7.8,-0.5,-0.1,-14.3,-12.3,-5.4,0.783
CC1(C)C([N+](=O)[O-])C(c2ccccc2O)NC(c2ccccc2O)C1[N+](=O)[O-] (configuration not stated),1.0,1.0,-1.2,-7.2,-10.0,-18.0,5.7,-0.00484
Cn1c(CCN2CCN(c3ccccc3)CC2)nc2cc(NC(=O)c3ccco3)ccc21,/,1.6,-0.8,-7.8,5.1,-4.5,-13.7,/
CCn1c2ccccc2c2cc(NC(=O)C(C)C)ccc21,1.2,1.4,2.5,16.3,-1.3,-13.3[20 µM],-18.2,-0.0594
Cc1ccccc1CNc1ccc(C(CC(N)=O)NC(=O)c2ccccc2)cc1[N+](=O)[O-] (configuration not stated),1.2,-5.2,3.6,4.0,-26.1,-25.6,19.8,-0.134
O=C(NCCCn1ccnc1)c1cc2c(ccc3ccccc32)o1,1.5,6.9,/,7.7,8.4,-35.5,0.3,-0.48
CC(C)COC(=O)Nc1nnc(SCCOc2ccccc2)s1,-14.4,-2.8,3.7,-13.7,-19.1,-15.4[20 µM],-5.4,-0.396
O=C(O)CSc1nnc(Cn2c(=O)sc3ccccc32)n1-c1cccc(Cl)c1,0.7,2.5,-7.9,15.6,-16.6,-18.8,-6.1,-0.0916
C/C(N)=C(/C#N)C(=O)COC(=O)CNC(=O)c1ccc(Cl)cc1Cl,6.2,4.4,2.4,0.6,4.5,-15.0,-0.2,-0.0396

# Five entries drawn at random from the list so far, as already listed:
SMILES,Rad51 HR inh,eIF4E-4G inh,thrombin 1536,14-3-3 Bad inh,EBV gp42 block,Furin inh,p47phox inh,Cl transport mod
C/C(N)=C(/C#N)C(=O)COC(=O)CNC(=O)c1ccc(Cl)cc1Cl,6.2,4.4,2.4,0.6,4.5,-15.0,-0.2,-0.0396
O=C(O)CSc1nnc(Cn2c(=O)sc3ccccc32)n1-c1cccc(Cl)c1,0.7,2.5,-7.9,15.6,-16.6,-18.8,-6.1,-0.0916
CC1(C)C([N+](=O)[O-])C(c2ccccc2O)NC(c2ccccc2O)C1[N+](=O)[O-] (configuration not stated),1.0,1.0,-1.2,-7.2,-10.0,-18.0,5.7,-0.00484
CCn1c2ccccc2c2cc(NC(=O)C(C)C)ccc21,1.2,1.4,2.5,16.3,-1.3,-13.3[20 µM],-18.2,-0.0594
Cn1c(CCN2CCN(c3ccccc3)CC2)nc2cc(NC(=O)c3ccco3)ccc21,/,1.6,-0.8,-7.8,5.1,-4.5,-13.7,/

# Continuation.
SMILES,Rad51 HR inh,eIF4E-4G inh,thrombin 1536,14-3-3 Bad inh,EBV gp42 block,Furin inh,p47phox inh,Cl transport mod
O=C(c1csc2ccccc12)n1cccn1,/,-1.3,4.4,-6.8,-24.5,-30.2[20 µM],-3.5,0.0497
O=C(CCN1C(=O)c2ccccc2C1=O)N1CCN(C2c3ccccc3-c3ccccc32)CC1,0.0,-0.1,-3.8,-2.5,-12.5,-15.5[20 µM],-14.9,/
O=C(N/N=C/c1ccc(O)c(O)c1)c1ccc(CSc2cccc3cccnc23)cc1,-7.7,-0.9[fluorescence artefact?],-1.3,6.2,-2.0,-2.1[20 µM],-37.4,-0.241
O=C(NC1=NCCS1)c1cc(-c2ccc(-c3ccccc3)cc2)nc2ccccc12,0.8,2.8,-12.1,-1.6[fluorescence artefact?],-22.1,-17.0,-38.3,0.51
C#CCOC(=O)c1ccccc1C(=O)n1nnc2ccccc21,-8.2,-2.7,11.8,-5.2,-14.5,-16.6,-49.5,0.271
COc1cc(NS(C)(=O)=O)c(OC)cc1NC(=O)c1cccc(F)c1,1.6,-4.1,2.8,-3.0,-16.2,-28.9,-2.9,/
CCOC(=O)N1CCN(Cc2nc(-c3cccc(Cl)c3)no2)CC1,/,0.9,1.0,-1.5,-11.5,-6.2,-0.3,/
C/C(=N\NC(=O)CCn1nc(C)cc1C)C(C)(C)C,-2.7,1.2,-5.8,-0.9,-1.2,-10.3,-5.4,-0.857
Cc1ccccc1NC(=S)N(CCCN1CCOCC1)Cc1cccnc1,7.0,3.6,-2.7,-8.1,-8.7,-12.4,3.8,0.833
COC(=O)C1=C(C)N(C(C)c2ccccc2)C(=O)C1 (configuration not stated),-6.7,0.5,-9.8,-7.7,-39.1,-11.3,-5.3,-0.0396
CC(C(=O)N1CCc2ccccc2C1)N1C(=O)c2ccccc2C1=O (configuration not stated),/,-6.6,-2.4,-10.1,-1.6,-20.8,-1.4,-0.212
CCOC(=O)CN1CC23C=CC(O2)C(C(=O)NC2CCCCC2)C3C1=O (configuration not stated),3.9,5.5[fluorescence artefact?],2.6,-9.4[fluorescence artefact?],-16.1,-17.6[20 µM],-2.6,0.657
Cc1nc(NS(=O)(=O)c2ccccc2)sc1NC(=O)OC(C)C,3.3,/,5.2,/,3.1,-0.6,-4.8,/
COc1ccc(NC(=S)Nc2ccccc2)cn1,-0.8,-3.5,-17.1,-1.5,7.5,-20.5,-5.1,1.02
CN1CCN(C(=S)c2cn(Cc3ccccc3F)c3ccccc23)CC1,28.4,0.1,-0.7,-12.5,10.1,-15.4,-2.5,1.19
Cc1ccc(-c2nc3[nH]c(=O)cc(NC(=O)C(C)C)n3n2)cc1,9.3,-11.2,0.1,0.7,-16.1,-17.8,-2.8,-0.261
O=C(c1ccc(Br)cc1)c1cc(-c2ccccn2)c(N2CCOCC2)s1,-8.7,3.5,-0.2,-9.9[fluorescence artefact?],-0.5,-13.0,-5.4,/
Cc1cccc(C(=O)OC2CCN(C)CC2)c1,-1.4,0.0,-6.2,6.9,-4.2,-14.3,4.1,2.21
Cc1ccc(CC2CC(=O)N(c3ncccn3)C2=O)cc1 (configuration not stated),/,1.4,-5.0,-2.3,-7.7,-23.8,-7.7,0.359
O=C(Nc1nc2ccc(Cl)cc2s1)C1CCCO1 (configuration not stated),-0.9,-0.7,-10.6,16.4,-11.3,-1.8[20 µM],3.2,-0.459
O=S(=O)(Nc1ccc(S(=O)(=O)N2CCCCC2)cc1)c1cccs1,6.3,-2.1,1.9,24.8,-5.2,-19.8[20 µM],2.8,-0.634
Cc1ccc(S(=O)(=O)N(c2nc(NC(C)C)nc(NC(C)C)n2)n2cnnc2)cc1,35.9,0.6,0.5,2.1[fluorescence artefact?],-2.0,-5.9,-3.1,-1.51
COc1ccc(C(=O)n2nnc3ccccc32)cc1Br,5.4,-3.6,18.9,12.3,-21.9,-20.6[20 µM],-14.4,-0.873
COC(=O)C1=C(C(=O)OC)C(c2cc(Cl)ccc2O)c2sc(=O)[nH]c2S1 (configuration not stated),-2.3,-1.4,0.0,-15.9,-3.7,-10.2,-14.8,-4.44*
Cc1ccc(-c2cc(C(F)F)nc(N3CCOCC3)n2)cc1,5.0,6.0,2.6,5.3,-8.6,-15.2,-8.8,-0.544
CCc1ccc(Cn2nnc(C(=O)NCc3ccccc3OC)c2N)cc1,0.8,0.0,-5.6,8.6[fluorescence artefact?],-3.6,-10.7,-17.8,0.675
O=C(NC1CCS(=O)(=O)C1)c1c(NC(=O)C2COc3ccccc3O2)sc2c1CCCC2 (configuration not stated),-7.9,-2.7,1.6,-5.1,-11.7,-17.8[20 µM],-7.4,-1.14
Cc1ccccc1NC(=O)Nc1ccccc1N1CCCCC1,-21.5,-0.8,0.7,1.1,-11.9,-10.3,-1.0,-0.299
O=c1c(/C=N/O)c(Nc2ccccc2)nc2ccccn12,2.5,-3.7,4.2,-1.9,10.6,-10.8,-3.5,0.334
FC(F)(F)c1cc(-c2ccco2)nc2ncnn12,/,-5.2[fluorescence artefact?],-0.4,2.1[fluorescence artefact?],10.5,-18.8,3.2,-0.443
Cn1c(Nn2cnnc2)nc2ccccc21,-6.7,-6.8,-10.6,-9.2[fluorescence artefact?],-8.1,-17.6,-2.2,/
O=c1c2cc(-c3ccccc3)sc2nc2n1N=C(c1cccs1)CS2,-3.9,-1.1,-1.3,-2.8,-13.4,0.9,0.0,-0.0279
O=C(NCc1cn(-c2ccccc2)nc1-c1ccccc1)c1cccc([N+](=O)[O-])c1,16.9,3.1[fluorescence artefact?],-7.2,-3.0,7.6,2.9,-8.5,0.91
Cc1nnnn1-c1cccc(C(=O)O)c1,5.1,-8.1[fluorescence artefact?],-0.3,1.9,-11.6,-9.2[20 µM],-2.4,/
O=C(/C=C\c1ccco1)Nc1nc(-c2ccccc2)cs1,7.0,0.5[fluorescence artefact?],-4.3,0.2[fluorescence artefact?],-5.3,-13.8,1.6,-1.29
COc1cccc(CN(C)CC(=O)Nc2cccc(C(F)(F)F)c2)c1OC,13.2,-2.3,-5.6,-4.1,-10.2,-28.8,-7.5,0.0148
COc1cc2ccccc2cc1C(=O)Nc1ccc(Cc2ccncc2)cc1,-0.9,-33.4,-4.5,-6.2,6.1,-21.4[20 µM],-30.7,-0.66
